# Screens: PubChem BioAssay, National Center for Advancing Translational Sciences (NCATS)
# NS1 inh: qHTS Assay for Inhibitors of Influenza NS1 Protein Function; S. cerevisiae slowed by influenza A NS1, growth recovery by OD600; Potency, µM (titrated, usually from 46.1 µM), without a hit: top-dose activity, positive = more growth; 270,000 compounds, 0.4% hits; AID 2326, 2010; further: actives are rising curves; nearly all actives have a fitted effect of over 50% in size
#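 S. cerevisiae expressing influenza A NS1, grown in glucose, washed, then diluted 1:100 into pH 6.0 -URA galactose medium with 23 nl compound. Growth recovery read as OD600; NS1-free strain serves as control.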
# RE007 growth inh: qHTS Assay for Inhibitors of the HIV-1 protein Vpr | S. pombe RE007 Vpr strain, BacTiter-Glo ATP luminescence, 24 h; control for the full effect not named in the record | Potency, µM (highest dose often 92.2 µM), inactives show at the top dose activity change, negative = less growth | 360,000 compounds, 0.21% hits | AID 651644, 2012; active = well fitted falling curve with a large enough effect; inconclusive = small, poorly fitted or top-dose-only effect; inactive = no such curve, though single readings can be large or run the other way;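 further: on the % scale 0 is the no-effect control and ±100 the full control effect; nearly all actives have a fitted effect of over 50% in size; the assay follows cell death caused by Vpr and the record does not say whether a fall means rescue or toxicity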
#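 Fission yeast RE007 carrying one integrated HIV-1 vpr copy, seeded at OD 0.01 in PMG+AL medium with 23 nL pinned compound. Grown 24 h at 30 degrees; viability read by BacTiter-Glo luminescence after 5 min.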
# 2A StopGo: High Throughput Screening for Foot and Mouth Disease Virus Antivirals | 410,000 compounds, 1.2% hits | human cells with a luciferase reporter of 2A StopGo recoding; control for the full effect not named in the record | Potency, µM (doses to about 57.9 µM), inactives show top-dose signal change, negative = less light | AID 1159524, 2015; active = well fitted falling curve with a large enough effect; inconclusive = small, poorly fitted or top-dose-only effect; inactive = no such curve, though single readings can be large or run the other way; tested in HEK293T cells; further: on the % scale 0 is the no-effect control and ±100 the full control effect; nearly all actives have a fitted effect of over 45% in size; luciferase light after 4 h
# SARS PLP yeast: qHTS of Yeast-based Assay for SARS-CoV PLP | S. cerevisiae expressing SARS-CoV PLpro, growth rescue; control for the full effect not named in the record | Potency, µM (titrated, usually from 32.9 µM), for the others: top-dose activity, positive = growth rescue | 330,000 compounds, 0.19% hits | AID 485353, 2010; further: 0% is about no effect; nearly all actives have a fitted effect of over 55% in size; growth read by luminescence after 48 h
# Cruzain Triton: qHTS Assay for Promiscuous and Specific Inhibitors of Cruzain (with detergent); Cruzipain (Trypanosoma cruzi), P25779; purified cruzain, Z-FR-AMC fluorescence, 0.01% Triton; Potency, µM, without a hit: max response, negative = inhibition, actives largely listed as inhibitors; 200,000 compounds, 0.43% hits; AID 1478, 2009; active means well fitted curve in the direction sought with a large enough effect; inconclusive means small, poorly fitted or top-dose-only effect, or another doubt; inactive means no such curve, though single readings can be large; an effect the other way counts as inactive or inconclusive;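 further: plate controls were neutral wells for no effect and buffer without enzyme for full effect; nearly all actives have a fitted effect of over 40% in size; top concentration of the series not given in the record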
# Target sequence (P25779 123-467 limits assumed): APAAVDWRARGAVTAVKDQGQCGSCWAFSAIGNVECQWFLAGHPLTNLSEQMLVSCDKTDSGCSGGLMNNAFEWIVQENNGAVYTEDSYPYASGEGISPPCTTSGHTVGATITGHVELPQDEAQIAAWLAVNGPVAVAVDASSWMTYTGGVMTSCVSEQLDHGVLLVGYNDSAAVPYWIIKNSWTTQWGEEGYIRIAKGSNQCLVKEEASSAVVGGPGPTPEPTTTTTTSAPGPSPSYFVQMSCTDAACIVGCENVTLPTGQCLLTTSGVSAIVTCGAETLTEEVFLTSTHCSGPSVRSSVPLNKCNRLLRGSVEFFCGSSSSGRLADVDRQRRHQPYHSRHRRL
#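 Enzyme 1.5 nM, Z-FR-AMC 2 uM, NaOAc 100 mM pH 5.5, DTT 5 mM, Triton X-100 0.01%; 15 min RT compound preincubation; kinetic ex360/em450, 60 s delta.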
# Lassa entry inh: qHTS for Inhibitors of binding or entry into cells for Lassa Virus; Lassa virus pseudotype entry inhibition, cell reporter; control for the full effect not named in the record; Potency, µM (top dose mostly 37.9 µM), for the others: top-dose activity change, negative = inhibition, most hits filed as inhibitors; 300,000 compounds, 1.2% hits; active means well fitted inhibition curve with a large enough effect; inconclusive means small, poorly fitted or top-dose-only effect, or effect the other way; inactive means flat fitted curve, though single readings scatter; tested in HEK293 cells; further: on the % scale 0 is the no-effect control and ±100 the full control effect; nearly all actives have a fitted effect of over 50% in size; luciferase read-out
# Marburg entry inh: qHTS for inhibitors of binding or entry into cells for Marburg Virus | Marburg virus pseudotyped entry inhibition, cell reporter; control for the full effect not named in the record; about a third of the inactives were read at about 46 µM | Potency, µM (series often up to 37.8 µM), without a hit: top-dose activity change, negative = inhibition, hits mostly inhibitors | 300,000 compounds, 1.8% hits; active = well fitted inhibition curve with a large enough effect; inconclusive = small, poorly fitted or top-dose-only effect, or effect the other way; inactive = flat fitted curve, though single readings scatter; tested in HEK293 cells; about a fifth of its hits are not listed in these tables; further: on the % scale 0 is the no-effect control and ±100 the full control effect; luciferase read-out
# Cruzain inh noDet: qHTS Assay for Promiscuous and Specific Inhibitors of Cruzain (without detergent) | purified cruzain, Z-FR-AMC fluorescence, no detergent | 200,000 compounds, 2.3% hits | Potency, µM, for inactives: max response, negative = inhibition, most hits filed as inhibitors | Cruzipain (Trypanosoma cruzi), P25779; active means well fitted curve in the direction sought with a large enough effect; inconclusive means small, poorly fitted or top-dose-only effect, or another doubt; inactive means no such curve, though single readings can be large; an effect the other way counts as inactive or inconclusive;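 further: plate controls were enzyme without inhibitor for no effect and buffer without enzyme for full effect; nearly all actives have a fitted effect of over 40% in size; top concentration of the series not given in the record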
#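 Purified cruzain at 1.5 nM, pre-incubated 15 min with compound at room temperature in 100 mM sodium acetate pH 5.5, 5 mM DTT, 0.00005% Triton X-100. Reaction started with 2 uM Z-FR-AMC; AMC fluorescence increase over 60 s gives rate.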
# Active calls of the source: *; ? = inconclusive; / = no result given; & = joins results of further samples; [ ] = dose if it differs, or a comment. Unless noted, the call rests on the fitted dose curve; in most records, active means well fitted rising curve with a large enough effect; inconclusive means small, poorly fitted or top-dose-only effect; inactive means no such curve, though single readings can be large or run the other way. Potency means the concentration at half of the fitted maximal effect.
SMILES,NS1 inh,RE007 growth inh,2A StopGo,SARS PLP yeast,Cruzain Triton,Lassa entry inh,Marburg entry inh,Cruzain inh noDet
Cc1ccc(NC(=O)CC2=NC(=O)C(CC(=O)Nc3ccccc3C)S2)cc1 (stereo not given),/,-2.1%,-15.8%,10.7%,/,?,-10.6%[46.1 µM],/
CC1Cc2cc(S(=O)(=O)N3CCC(C(=O)N4CCCCC4)CC3)ccc2N1C(=O)C1CC1 (stereo not given),6.7%,3.0%,-13.4%,-3.7%,/,17.1%[46.1 µM],?,/
COC(=O)c1cc(=O)n2c(-c3ccccc3)csc2n1,1.9%,22.3%,-1.6%,11.3%,-0.1%,?,-28.6%[46.1 µM],2.2%
CCOc1ccc(C(=O)NCC2CCCN2S(=O)(=O)c2cccs2)cc1 (stereo not given),/,5.4%,23.8%,-4.5%,/,1.2%[46.1 µM],-10.5%,/
O=C(Nc1ccccn1)C1(c2cccs2)CCOCC1,5.8%,1.7%,-11.0%,7.8%,4.0%,10.8%,?,-1.2%
CCOC(=O)CSc1nnc(-c2ccccc2)o1,-0.1%,-10.0%,-5.1%,1.8%,0.6%,19.9%,6.8%,2.9%
Cc1ccc(-c2csc(NC(=O)C3CSC4(C)CCC(=O)N34)n2)cc1 (stereo not given),/,-4.4%,1.2%,8.5%,/,-3.1%,-0.4%,/
CC(C)Cc1[nH]c(=O)c(C#N)c2c1COC(C)(C)C2,1.1%,8.2%,-26.1%,0.0%,-4.0%,15.1%,?,-2.9%
Nc1nc(SCC(=O)N2N=C3/C(=C/c4ccco4)CCCC3C2c2ccco2)n[nH]1 (stereo not given),12.4%,3.2%,0.0%,-1.1%,-4.6%,-19.9%,-14.3%,-2.2%
O=C(c1cc(Br)c(Br)s1)N1CCN(c2ccccn2)CC1,0.8%,?,-24.3%,-1.5%,/,0.5%,?,/
CCn1c(CSc2nc3ccccc3[nH]2)nc2cc(C(=O)O)ccc21,2.6%,2.7%,32.0%[activator],6.5%,5.6%,-1.1%,8.7%,-0.3%
CN1CCN(C(=O)c2cc3sccc3n2CC(=O)c2ccccc2)CC1,2.4%,7.1%,-11.4%,-4.1%,2.3%,-1.1%,4.8%,-1.7%
CN(C(=O)C1CCN(S(=O)(=O)c2cccs2)CC1)C1CCCCC1,2.2%,11.3%,/,-1.9%,1.0%,-11.8%,10.2%,4.1%
CCCCN1C(=O)C(=O)N(CC(=O)Nc2ccc(OC(F)(F)F)cc2)C1=O,/,9.4%,-13.0%,-4.1%,/,5.3%[46.1 µM],6.4%[46.1 µM],/
CC(C(=O)O)n1nc2ccccc2n1 (stereo not given),-5.4%,30.8%,-3.2%,-3.0%,1.6%,12.2%,9.8%,-6.1%
COc1ccc(NC(=O)Cc2ccc(Cl)cc2Cl)cn1,/,11.1%,-13.4%,-3.1%,/,-10.4%[46.1 µM],6.9%[46.1 µM],/
CC(=O)Nc1ccc(SCC(=O)Nc2cc(C(C)(C)C)nn2-c2ccccc2)cc1,12.6%,10.6%,0.0%,18.2%,2.7%,-0.2%,?,2.1%
Cc1ccc(C(=O)N2CCCC(N3CCN(c4ccccc4C)CC3)C2)c(=O)[nH]1 (stereo not given),-3.2%,-14.7%,-3.3%,10.7%,/,/,/,/
CCN(CC)CCN(C(=O)CCS(=O)(=O)c1ccccc1)c1nc2cc3c(cc2s1)OCO3,1.3%,-9.5%,-27.0%,-3.3%,/,?,?,/
CCn1c(Oc2ccccc2)nc2c1c(=O)n(C)c(=O)n2C,-11.4%,-0.3%,-6.9%,7.5%,/,3.2%,12.4%,/
O=C(NCCCN1CCCCC1)c1ccc2c(c1)NC(=O)c1ccccc1S2,-11.6%,1.6%,-9.1%,3.7%,/,/,/,/
O=C(CN(Cc1ccco1)S(=O)(=O)c1ccccc1)N/N=C/c1cccc(O)c1,-20.8%,14.4%,0.0%,2.2%,1.4%,-10.2%,10.5%[46.1 µM],-10.8%
Cc1ccc(C)c(OCCn2cc(/C=C(/C#N)C(=O)NCC3CCCO3)c3ccccc32)c1 (stereo not given),10.1%,/,0.0%,-0.8%,-5.5%,?,?,3.7%
CCCCNC(=O)CNC(=S)N(CCCN1CCOCC1)Cc1cccs1,8.8%,97.6%,-7.9%,19.4%,0.4%,-2.3%,?,6.5%
Fc1ccc(C(c2nnnn2Cc2cccs2)N2CCN(C3CCCC3)CC2)cc1 (stereo not given),0.0%,0.1%,?,4.1%,1.4%,?,?,10.1%
COc1ccc(OC)c(/C=C2\S/C(=N/NC(=O)c3ccc4ccccc4c3)NC2=O)c1,7.7%,-12.3%,-24.9%,?,-17.8%,-7.7%,?,?
CCOc1ccc(C(=O)Nc2ccccc2NC(C)=O)cc1OCC,/,1.3%,-5.6%,0.0%,/,0.1%[46.1 µM],24.2%[46.1 µM],/
Cn1nc(C(=O)NCc2ccccc2)c2c1-c1ccccc1S(=O)(=O)C2,0.9%,-4.9%,-2.4%&-4.9%,-12.5%,-10.1%,-4.2%[46.1 µM],/,9.9%
CCN(C(C)=O)c1nnc(CSc2nc3ccccc3s2)s1,-47.8%,?,25.7%,-6.4%,-3.5%,?,-28.5%&-28.5%,13.3%
CC(C)C(NC(=O)c1ccccc1Br)c1ccccc1 (stereo not given),3.5%,-16.9%,-24.3%,-0.7%,/,-34.0%[46.1 µM],?,/
CCOc1ccc(Cn2c(=O)sc3ccccc32)cc1,-89.1%,-8.0%,-10.5%&1.3%,0.2%,-1.8%,4.1%[46.1 µM],-13.8%&-13.8%[46.1 µM],7.1%
COc1ccc(CCNC(=O)CCCCCN2C(=O)c3ccccc3C2=O)cc1OC,5.4%,-4.0%,-27.8%,-16.4%,-2.3%,0.1%,?,2.7%
CCCCOc1ccc(C(=O)OCC(=O)NC2CCCC2)cc1,0.1%,8.5%,-25.4%,-0.8%,/,?,1.8%,/
Cc1cc(C(=O)N2CCN(C(c3ccccc3)c3ccccc3)CC2)no1,-30.4%,3.8%,?,-4.7%,-10.4%,1.3%,10.9%,3.1%
Cc1cc(C(=O)NNC(=O)c2ccc(Cl)cc2)no1,-0.9%,2.1%,6.6%,-0.8%,/,5.5%,25.2%[46.1 µM],/
CC(=O)N(Cc1cc(=O)[nH]c2ccccc12)c1cccc(C)c1,-30.1%,-3.8%,-2.9%,3.3%,-6.5%,1.1%,9.1%,-9.5%
CNC(=S)NCCc1ccccc1,8.1%,-1.0%,7.0%,-2.4%,/,10.0%,6.1%&6.1%[46.1 µM],/
CC(Oc1ccccc1)C(=O)N1CCc2ccccc2C1 (stereo not given),-1.9%,3.0%,-2.5%,-6.0%,/,/,/,/
O=C(CNCc1ccc(Cl)cc1)Nc1ccc(C(=O)N2CCCCC2)cc1,-3.5%,-1.4%,14.6%,0.0%,/,7.5%,-14.5%[46.1 µM],/
O=C(CNS(=O)(=O)c1ccccc1)OCC(=O)c1ccc(F)cc1,0.1%,-9.1%,-12.4%,-2.6%,/,-13.7%[46.1 µM],9.9%[46.1 µM],/
CCCn1c(/C=C/c2ccccc2)nc2ccccc21,-84.7%,-12.4%,54.1%&14.0%[activator],-11.5%,-20.8%&-19.6%,-22.5%[46.1 µM],-27.2%&-27.2%,?
Cc1ccc(NCc2n[nH]c(=S)n2-c2ccccc2)cc1Cl,/,4.3%,-3.1%,2.7%,/,18.0%,2.0%[46.1 µM],/
Cc1c(Cl)c(=O)oc2cc(OC(C)C)ccc12,1.1%,-9.7%,-0.6%,10.5%,-4.8%,-23.0%,-3.9%,?
COCc1c(C(=O)OCC(=O)NCCN2C(=O)CSC2=O)oc2ccccc12,-10.0%,1.3%,-20.2%,-14.2%,-5.0%,?,?,-3.9%
CCn1nnnc1NC(=O)c1cccc(OC)c1,0.9%,3.2%,47.8%[activator],0.4%,/,/,?,/
Cc1cccc(OCC(=O)NCCCNC(=O)c2ccncc2)c1,7.3%,-12.6%,0.0%,?,/,2.0%,21.2%,/
COC(=O)c1cccc(NC(=O)c2cnn(C)c2)c1,/,5.5%,19.1%,/,/,-0.7%[46.1 µM],3.9%[46.1 µM],/
CC(=O)Nc1cccc(NC(=O)CCCC2CCCCC2)c1,-8.7%,10.3%,-3.8%,-0.2%,/,21.9%[46.1 µM],9.8%[46.1 µM],/
Cc1ccc(C(=O)C2CC2)c(C)c1,/,-6.2%,4.2%,/,/,2.8%[46.1 µM],3.2%[46.1 µM],/
CCn1ncc(Br)c1C(=O)Nc1cccc(C(C)=O)c1,3.2%,15.3%,11.8%,2.2%,/,3.3%[46.1 µM],?,/
Cc1ccc(NC(=O)CS(=O)CC(=O)NC23CC4CC(CC(C4)C2)C3)cc1 (stereo not given),-7.5%,30.9%,-0.1%,-2.2%,/,-8.5%[46.1 µM],18.3%[46.1 µM],/
CN(C(=O)COC(=O)c1cc[n+]([O-])cc1)c1ccccc1,11.2%,-1.7%,-10.0%,0.7%,/,14.7%[46.1 µM],-15.5%[46.1 µM],/
O=C(NCCc1ccccc1)C(=S)N1CCCCC1,4.0%,3.7%,14.8%,-0.1%,/,18.9%[46.1 µM],?,/

# Rows were taken by chance; overall some 4.6% were active at least once.
